Measles inh = inhibitors of measles virus growth in infected cells; infected Vero cells, GFP fluorescence, 64 h; stronger effect = lower value; z-score (test concentration not listed); 33,000 tested, 0.1% active; AID 745;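 active = z-score under -3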;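 also: score is relative to mean and SD of the compound wells of a plate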
* = called active by the depositor. This is a subset (hit frequency here may not be typical).

#	smiles	Measles inh
1	Cc1ccc(Cl)cc1NC(=O)CCn1c(=S)oc2ccccc21	1.1
2	Cc1ccc(C)c(C(=O)c2ccc(N)cc2)c1	-0.87
3	O=C(NCc1ccc2c(c1)OCO2)c1ccc(N2CCCC2=O)cc1	1.6
4	CC1=C(C(=O)Nc2ccccc2Cl)C(c2ccccc2Cl)NC(=S)N1 (stereo unspecified)	-0.53
5	Cn1c(=O)[nH]c(=O)c2c1nc(SCCN1CCCCC1)n2Cc1ccccc1	-0.45
6	Cc1cccc(NC(=O)CC2Sc3ccc(C(F)(F)F)cc3NC2=O)c1C (stereo unspecified)	0.47
7	CCOc1ccccc1-n1c(=S)[nH]c2[nH]ncc2c1=O	-0.36
8	CCOc1cc(C2C3=C(CC(C)(C)CC3=O)N(CC)C3=C2C(=O)CC(C)(C)C3)cc(Cl)c1O	-0.77
9	O=C(Cn1ccc2ccccc2c1=O)Nc1ccccn1	-0.91
10	O=c1c2ccccc2n(Cc2cccc([N+](=O)[O-])c2)c(=O)n1-c1cccc(F)c1	-0.04
11	O=C(CCS(=O)(=O)c1cc(Br)cc2c1N(C(=O)C1CC1)CC2)N1CCOCC1	0.49
12	CCC1Sc2ccccc2N(CC(=O)NC2CCCCC2)C1=O (stereo unspecified)	0.04
13	COc1ccc(-n2c(-c3cccc([N+](=O)[O-])c3)nc(=S)c3c2CCCC3)cc1	0.5
14	COc1ccc(OC)c(-n2c(=S)[nH]c3cc(C(=O)O)ccc3c2=O)c1	-0.65
15	Cn1c(=O)c2c(SCC(N)=O)nc(-c3ccco3)nc2n(C)c1=O	2.7
16	CCOC(=O)c1cnc2ccccc2c1Nc1ccc(N(C)C)cc1	-0.59
17	O=[N+]([O-])c1ccc(-c2cn(-c3ccc(Cl)cc3)c(=S)[nH]2)cc1	-0.19
18	CCOC(=O)c1c(NC(=O)c2oc3ccccc3c2C)sc2c1CCCC2	0.49
19	COc1ccc2c(c1)C(C)=CC(C)(C)N2C(=O)CSc1nnc(-c2ccc(C)cc2)o1	0.58
20	CCOC(=O)c1cccc(C(=O)Nc2ccc(F)cc2)n1	-0.36
21	Cc1ccc2[nH]c3c(c2c1)CCCC3NC(N)=O (stereo unspecified)	-0.38
22	COc1ccc(Nc2nc(-c3ccccc3F)nc3ccccc23)c(OC)c1	1.7
23	Cc1cc(N2C(=O)c3ccc(C(=O)N4CCCC(C)C4)cc3C2=O)no1 (stereo unspecified)	-0.09
24	O=C(CS(=O)(=O)c1cn(Cc2cccc(F)c2)c2ccccc12)N1CCc2ccccc21	0.97
25	Cc1ccc(Cc2c(C)nc3c(C(=O)N4CCN(c5ccc(F)cc5)CC4)cnn3c2C)cc1	-0.75
26	COc1ccc(-c2nc(SCC(=O)Nc3ccc(C(C)=O)cc3)c3c(=O)n(C)c(=O)n(C)c3n2)cc1	0.47
27	CCOC1=NS(=O)(=O)c2ccccc21	-0.03
28	O=C(c1ccccc1)c1ccc2nc(Cc3cccc([N+](=O)[O-])c3)c(=O)[nH]c2c1	1.3
29	CC1(C)CC(=O)C(Sc2ccc(Br)cc2)=C(OC(=O)c2ccco2)C1	-0.28
30	COc1ccccc1C(=O)Nc1ccccc1-c1nc2ccccc2s1	-0.53
31	Cc1cccn2c(=O)c3cc(C(=O)Nc4ccc5c(c4)OCO5)sc3nc12	1.1
32	Cc1cc(C)n2nc(SCc3ccccc3Cl)nc2n1	1.1
33	CSc1nnc2c(n1)OC(c1c(C)[nH]c3ccccc13)N(C(C)=O)c1ccccc1-2 (stereo unspecified)	0.67
34	C=CCOCC(O)CNc1ccccc1 (stereo unspecified)	-0.66
35	CCOc1ccc(N/C(=N/c2nc(C)cc(C)n2)NC(C)=O)cc1	-0.08
36	COc1cc(C(=O)NCCOc2ccccc2C)cc(OC)c1OC	-0.3
37	CCCCN(CC)S(=O)(=O)c1ccc2c(c1)CCN2C(=O)C1CCC1	0.08
38	COc1cc2c(=O)n(Cc3ccco3)c(=O)n(CC(=O)c3ccc(Br)cc3)c2cc1OC	0.82
39	COc1ccc(NC(=O)CN(c2ccc(OC)c(Cl)c2)S(=O)(=O)c2ccccc2)cc1	-0.56
40	O=C(NC1CCCC1)c1nn2c(c1Cl)NC(c1ccccc1)CC2C(F)(F)F (stereo unspecified)	-0.73
41	CCOc1ccc(S(=O)(=O)N=C2C=C(Nc3ccc(O)cc3)C(=O)c3ccccc32)cc1	-0.33
42	COc1ccc(OC)c(C=Cc2[nH]c(=O)[nH]c(=O)c2[N+](=O)[O-])c1	-0.44
43	Cc1ccc(NC(=O)c2cc3n(n2)C(C(F)(F)F)CC(c2ccc(Cl)cc2)N3)cc1C (stereo unspecified)	0.97
44	CC(NC(=O)c1ccc(F)cc1)c1nc2ccccc2[nH]1 (stereo unspecified)	-0.52
45	Brc1ccc(C2=Nn3c(nnc3-c3ccc4c(c3)OCO4)SC2)cc1	-0.4
46	COc1ccc(CCNC(=O)C(=O)Nc2ccccc2)cc1OC	-0.15
47	CCOC(=O)C1=C(C)NC(=O)CC1c1ccccc1F (stereo unspecified)	-0.4
48	Cc1cccn2c(=O)c3cc(C(=O)NCC(C)C)sc3nc12	-0.79
49	Cc1ccc(C)c(-c2csc(Nc3ccc(S(=O)(=O)Nc4nc(C)cc(C)n4)cc3)n2)c1	-0.52
50	CC1CCCCN1CCNS(=O)(=O)c1ccc2c(c1)CCN2C(=O)C1CC1 (stereo unspecified)	1.7
51	CC(=O)c1cccc(NC(=O)CCS(=O)(=O)c2cccs2)c1	-0.69
52	COc1ccc(Br)cc1CNC(=O)C1CCN(C(=O)N(C)C)CC1	0.45
53	Cc1ccc(CNCC2CCCO2)cc1 (stereo unspecified)	1.6
54	CCc1ccc(Nc2nc3ccccc3nc2NS(=O)(=O)c2ccccc2)cc1	-0.48
55	COC(=O)c1cc2ccccc2oc1=O	-0.03
56	CCC(CC)C(=O)Nc1c2cnn(-c3ccccc3)c2nc(=O)n1-c1ccccc1	2.7
57	C=CCSc1nnc2c(n1)OC(c1ccc(C)cc1)Nc1ccccc1-2 (stereo unspecified)	-1.7
58	O=C(Cn1cnc2sc3c(c2c1=O)CCCC3)NCCC(=O)N1CCCC1	-0.47
59	COc1ccc(-n2nc3cc(C)c(NC(=O)c4ccc(Br)o4)cc3n2)cc1	0.59
60	O=C(CCn1c(=S)[nH]c2cc3c(cc2c1=O)OCO3)N1CCN(c2cccc(Cl)c2)CC1	-0.63

The list continues.
#	smiles	Measles inh
61	CC(=O)c1c(C)[nH]c(C(=O)NCCN2CCC(C)CC2)c1C	-0.55
62	CN(C)c1ccc(N2C(=O)c3cccc4c(Br)ccc(c34)C2=O)cc1	-0.69
63	CC(=O)C1=C(O)C(=O)N(CCN2CCOCC2)C1c1cccc(F)c1 (stereo unspecified)	0.3
64	COc1cccc(C2C(C(=O)Nc3nc4ccc(Br)cc4s3)=C(C)NC3=C2C(=O)CC(C)(C)C3)c1 (stereo unspecified)	1.3
65	COc1ccc2cc3cc(C(=O)NCCN(C)Cc4ccccc4)sc3nc2c1	0.38
66	COc1ccccc1NC(=O)C1CC(=O)OC12CCOC(C)(C)C2 (stereo unspecified)	-0.37
67	COc1cc(C(Nc2ccccn2)c2ccc3ccc(C)nc3c2O)cc(OC)c1O (stereo unspecified)	-0.88
68	Cc1ccc(S(=O)(=O)Nc2nc3nc(-c4ccccc4)cc(-c4ccccc4)n3n2)cc1	0.84
69	CC(=O)Nc1ccc(N2C(=O)c3ccc(Br)cc3C2=O)cc1	-0.35
70	COc1ccc(OC)c(S(=O)(=O)NC2CCCC(C)C2C)c1 (stereo unspecified)	1.4
71	O=C(CSc1nc2ccc(Br)cc2c2nc3ccccc3n12)NCC1CCCO1 (stereo unspecified)	-0.53
72	CC1CCCCN1S(=O)(=O)c1ccc(F)c(C(=O)Nc2ccc(Br)cc2)c1 (stereo unspecified)	-0.25
73	O=C(Nc1cccnc1Cl)c1cnn2c(C(F)(F)F)cc(-c3cccs3)nc12	0.17
74	CC1CCN(C(=O)c2ccc(NC(=O)C3CCCO3)cc2)CC1 (stereo unspecified)	0.72
75	CCOc1cccc2cc(C(N)=O)c(=Nc3ccc(Cl)cc3)oc12	-0.12
76	CCC1Oc2ccc(C)cc2N(CC(=O)NCCCN2CCCCC2)C1=O (stereo unspecified)	0.86
77	O=C(Oc1ccc(C(=S)N2CCCCC2)cc1)c1ccc([N+](=O)[O-])cc1	-0.12
78	Cc1ccc(-c2cc(C(F)(F)F)n3ncc(C(=O)NCc4ccccc4Cl)c3n2)cc1	0.93
79	CCOc1ccccc1N(CC(=O)N1CCC(C)CC1)S(=O)(=O)c1ccccc1	1.4
80	Cc1cccc(NS(=O)(=O)c2cccc3nsnc23)c1	0.28
81	Cc1c(C(=O)Nc2ccc3c(c2)OCO3)sc2nc(-c3ccccc3)cn12	-1.9
82	COc1ccc(N2CCN(Cc3cn4c(C)cc(C)nc4n3)CC2)cc1	1.1
83	O=C(Nc1nnc(CCS(=O)(=O)c2ccc(Cl)cc2)s1)c1cccs1	-0.12
84	Cc1cc(N2C(=O)CSC2c2cc3c(cc2[N+](=O)[O-])OCO3)ccc1Br (stereo unspecified)	-0.86
85	Oc1c(C(Nc2ccccn2)c2ccccc2Br)ccc2cccnc12 (stereo unspecified)	-0.71
86	O=C(O)CSCCC(=O)Nc1ccc(F)cc1	-0.98
87	O=C(NC1CCCC1)c1cnn2c(C(F)(F)F)cc(-c3ccccc3)nc12	0.15
88	O=S(=O)(NC1c2cccc3cccc(c23)C1NCc1ccco1)c1ccc(Cl)cc1 (stereo unspecified)	0.25
89	COc1ccccc1-c1csc(NC(=O)c2cccs2)n1	-0.5
90	O=C(O)C1OCCc2ccccc21 (stereo unspecified)	1.6
91	CC(=O)c1oc2c(C)c3oc(=O)cc(C)c3cc2c1C	-1.4
92	O=C(C(=O)c1ccc(F)cc1)c1ccccc1	0.21
93	COc1cc(NC(=O)CCN2CCC(C(N)=O)CC2)cc(OC)c1	0.65
94	C=CCOC(=O)C1=C(C)NC2=C(C(=O)CCC2)C1c1ccccc1OCCCC (stereo unspecified)	-0.03
95	O=C(CN1C(=O)C2CC=CCC2C1=O)N1CCN(Cc2ccccc2)CC1 (stereo unspecified)	0.44
96	Cc1ccc(CCNC(=O)c2cnn3c(C)c(Cc4c(C)cc(C)cc4C)c(C)nc23)cc1	-1.5

Some of these compounds in order of formula weight, lowest first.
#	smiles	Measles inh
16	CCOC(=O)c1cnc2ccccc2c1Nc1ccc(N(C)C)cc1	-0.59
77	O=C(Oc1ccc(C(=S)N2CCCCC2)cc1)c1ccc([N+](=O)[O-])cc1	-0.12
71	O=C(CSc1nc2ccc(Br)cc2c2nc3ccccc3n12)NCC1CCCO1 (stereo unspecified)	-0.53

(listing goes on)
#	smiles	Measles inh
97	COc1ccccc1NC(=O)CN1CCN(CC(=O)Nc2cccc(C(F)(F)F)c2)CC1	1.2
98	Cc1ccc(Nc2c(-c3ccsc3)nc3ccc(Cl)cn23)cc1	1.7
99	Cc1cc(NC(=O)c2noc3c2CCCC3)no1	-0.68
100	O=CN1CCN(c2nc3ccccc3nc2C(F)(F)F)CC1	-0.71
101	Cc1ccc(-c2ccc(CCC(=O)O)[nH]2)cc1	-0.34
102	N#Cc1c(-n2ncnc2-c2ccc(F)cc2)sc2c1CCCC2	0.14
103	Cc1ccc(C)c2c1NC(c1ccc(Br)cc1)C1CC=CC21 (stereo unspecified)	-0.79
104	CN(C)CCN1C(=O)C(=O)/C(=C(/O)c2ccc(F)cc2)C1c1ccc(Cl)cc1 (stereo unspecified)	0.62
105	O=C(Cc1ccccc1)Nc1ccc(-c2nc3ccccc3[nH]2)cc1	0.67
106	COc1cc(OC)cc(C(=O)N(C(=O)c2cc(OC)cc(OC)c2)c2ncccc2C)c1	2.8
107	CCc1ccccc1N1C(=O)C(Cl)=C(NS(=O)(=O)c2ccc(N)cc2)C1=O	-0.32
108	Cc1ccc(/C(O)=C2\C(=O)C(=O)N(CCCN(C)C)C2c2ccncc2)cc1 (stereo unspecified)	3.1
109	Cc1cc(N2C(=O)c3ccc(C(=O)N4CCC(C)CC4)cc3C2=O)no1	0.1
110	CCC(=O)N1CCc2cc(Br)cc(S(=O)(=O)CCC(=O)NCc3ccc(Cl)cc3)c21	1.1
111	COc1ccc(C2=NN(S(=O)(=O)c3ccccc3)C(c3ccc(F)cc3)C2)cc1OC (stereo unspecified)	-0.01
112	COc1cc(C2C3=C(CC(C)(C)CC3=O)OC3=C2C(=O)CC(C)(C)C3)ccc1OC(=O)c1ccccc1Cl	1.4
113	O=[N+]([O-])c1cc(C(F)(F)F)ccc1NCCOc1cccc2cccnc12	0.04
114	CCOc1ccc(C(=O)N2CC(=O)Nc3ccc(C)cc3C2c2ccccc2)cc1OCC (stereo unspecified)	1.3
115	COc1ccc(C(=O)Nc2nncs2)cc1[N+](=O)[O-]	3
116	O=C1c2ccccc2C(=O)c2c1cc(F)cc2N1CCCCC1	0.27
117	Fc1ccc(Nc2c(-c3ccco3)nc3ccc(Br)cn23)cc1	-0.18
118	CN(C)c1ccc(C2Nc3ccccc3NC3=C2C(=O)CCC3)cc1 (stereo unspecified)	0.12
119	COc1ccc([N+](=O)[O-])cc1NC(=O)COc1ccc(Cl)cc1	-0.61
120	Cc1nn(-c2cc(N3CCN(C(=O)C(C)(C)C)CC3)ccc2[N+](=O)[O-])c(=O)c2ccccc12	-0.54
121	CCOC(=O)C1C(=O)C=C(c2cccs2)CC1c1ccccc1Cl (stereo unspecified)	-0.81

Among those listed so far, these contain a COOH group.
#	smiles	Measles inh
14	COc1ccc(OC)c(-n2c(=S)[nH]c3cc(C(=O)O)ccc3c2=O)c1	-0.65
86	O=C(O)CSCCC(=O)Nc1ccc(F)cc1	-0.98
90	O=C(O)C1OCCc2ccccc21 (stereo unspecified)	1.6
101	Cc1ccc(-c2ccc(CCC(=O)O)[nH]2)cc1	-0.34

Part of the list above, with the structure last:
no.	Measles inh	canonical_smiles
97	1.2	COc1ccccc1NC(=O)CN1CCN(CC(=O)Nc2cccc(C(F)(F)F)c2)CC1
120	-0.54	Cc1nn(-c2cc(N3CCN(C(=O)C(C)(C)C)CC3)ccc2[N+](=O)[O-])c(=O)c2ccccc12

Bioassay records from PubChem.
